Screens (PubChem BioAssay)
VACV mCherry inh: inhibitors of vaccinia virus infection (mCherry reporter signal); Potency, µM (top dose mostly 36.5 µM), without a hit: top-dose activity change, negative = inhibition, usual class: inhibitors; Vaccinia virus mCherry reporter infection, fluorescence; about a quarter of the inactives have no number; 310,000 compounds, 0.63% hits; AID 720579; active = well fitted inhibition curve with a large enough effect; inconclusive = small, poorly fitted or top-dose-only effect; inactive = no such curve, though single readings can be large or run the other way; tested in A549 cells; further: nearly all actives have a fitted effect of over 35% in size; inactives centre near -10
Vaccinia Venus: vaccinia inhibition (Venus reporter); Vaccinia virus Venus reporter expression, fluorescence; Potency, µM (top dose mostly 36.5 µM), without a hit: at the highest dose activity change, negative = inhibition, usual class: inhibitors; 330,000 compounds, 0.46% hits; AID 720580; active means well fitted inhibition curve with a large enough effect; inconclusive means small, poorly fitted or top-dose-only effect; inactive means no such curve, though single readings can be large or run the other way; tested in A549 cells; further: nearly all actives have a fitted effect of over 30% in size; inactives centre near -10
Numbers without * were called inactive; i = inactive; ? = inconclusive; / = not tested or not shown; [ ] = another dose, or the depositor's remark. On the % scale 0 is the no-effect control and ±100 the full control effect; potency means the concentration at half of the fitted maximal effect.

Values run as follows: VACV mCherry inh | Vaccinia Venus
> CC[C@]12c3[nH]c4ccccc4c3CCN1C(=O)C(CC(=O)NC(C)(C)C)C[C@@H]2C(=O)N1CCN(C(=O)C2CC2)CC1 (some centres not stated)
    -18% | ?
> Cc1cc(C(=O)OCC(=O)NCc2ccc3c(c2)OCO3)c2ccccc2n1
    -21% | -7%
> Cc1ccc(C(C)C)c(OCc2ccc(C(=O)N/N=C/c3ccc(O)c(O)c3)cc2)c1
    ? | ?
> O=C(c1ccco1)N1CCN(c2ncnc3c2[nH]c2ccc(Br)cc23)CC1
    / | -26%
> CC(C)Oc1ccc(CNC(=O)C2CCN(C(=O)N3CCOc4ccccc43)CC2)cc1
    i | 1%
> Cc1ccc(Cn2nnc3c(=O)[nH]c(C4CCN(S(=O)(=O)Cc5ccccc5)CC4)nc32)cc1
    ? | ?
> Cc1cccc(N2C(=O)CC(Sc3nc(-c4ccccc4)c4cc(Cl)ccc4n3)C2=O)c1 (configuration not stated)
    / | -7%
> O=C1NC(=O)N(c2ccc3c(c2)OCO3)C(=O)/C1=C\c1ccc(-c2ccccc2C(=O)O)o1
    -2% | 9%
> COc1ccc(/C=N/NC(=O)CCn2cnc3ccccc32)cc1
    i | -10%
> COc1ccc(N(C(=O)c2cnsn2)C(C(=O)NC2CCCCC2)c2ccncc2)cc1 (configuration not stated)
    i | -1%
> CC1CCC(NC(=O)c2cc(S(=O)(=O)N(C)C)ccc2N2CCCC2)CC1 (configuration not stated)
    i | -8%
> Cc1cccc(OC(=O)Nc2ccc(C(=O)O)c(O)c2)c1
    i | -14%
> COc1ccc([N+](=O)[O-])cc1NC(=O)c1cncc(Br)c1
    i | -8%
> COc1cc(Cl)c(CNC[C@H]2O[C@@H](n3cnc(C(N)=O)n3)[C@H](O)[C@@H]2O)c(Cl)c1O
    -11% | 0%
> Cn1c(=O)c2c(ncn2CC(N)=O)n(C)c1=O
    -7%[1.46 µM] | -15%
> Cc1ccc(NC(=S)NNC(=O)CSc2nnc(-c3ccc(Cl)cc3)n2C2CCCCC2)cc1
    4% | -11%
> Cc1ccc(Cn2c(=O)n(CCCCC(=O)NCCc3ccc(Cl)cc3)c(=O)c3ccccc32)cc1
    -17% | -7%
> CCCCOC(=O)/C(C#N)=C/c1ccc(-c2ccc(Br)cc2)o1
    i | ?
> CC(=O)Nc1cc(C)nn1-c1nc2ccccc2s1
    -3% | -6%
> COc1ccc(NC(=O)COC(=O)CC2CC3CCC2C3)c([N+](=O)[O-])c1 (configuration not stated)
    -10% | 1%
> COc1cccc(C2C3=C(CCCC3=O)Nc3[nH]n(-c4ccccc4)c(=O)c32)c1 (configuration not stated)
    -15% | -14%
> O=C(Oc1ccc[nH]c1=O)c1ccc(F)cc1
    i | -9%
> COc1ccc(/C=C/C(=O)NC2CCN(Cc3ccccc3)CC2)cc1OC
    i | -3%
> O=C(CCC(=O)c1ccc(Oc2ccccc2)cc1)Nc1cccc(Cl)c1Cl
    i | -15%
> CCOc1ccccc1-c1nnc(SCC(=O)NC2CC3CCC2C3)n1CC (configuration not stated)
    / | -11%
> Cc1cc(C)n2nc(C(F)(F)F)c(-c3ccccc3)c2n1
    0% | -11%
> O=C(Nc1ccc(NC(=O)c2ccc(Cl)c(S(=O)(=O)N3CCOCC3)c2)cc1)c1ccccc1
    -14% | -20%
> CC(=O)N1N=C(c2ccncc2)OC12CCCCC2
    i | -7%
> CCc1cccc(NC(=O)CSc2ncc3c(n2)-c2ccccc2N(Cc2ccccc2C)S3(=O)=O)c1
    -8% | 6%
> Cc1cc2oc(=O)cc(C)c2c(=O)o1
    i | -14%
> Cc1cc(C)cc(NC(=O)c2nccnc2C(=O)O)c1
    i | 5%
> CCOc1ccc(C(CC(=O)O)n2cnnn2)cc1 (configuration not stated)
    -2% | 0%
> Cc1cc(NS(=O)(=O)c2ccc(NC(=O)c3ccccc3C)cc2)nc(C)n1
    -8% | -7%
> CCOC(=O)C1=C(C)Nc2ccccc2N=C1NC(=O)c1ccc(Cl)c(S(=O)(=O)N2CCCC2)c1
    -21% | -15%
> COc1cc(CN2C[C@@H](CO)O[C@@H](n3cnc4c(NC5CC5)ncnc43)C2)cc(OC)c1OC
    42%[activator] | 17%
> Cn1c(C(=O)NCc2ccc(F)cc2)cc2c(=O)n(C)c3ccccc3c21
    7% | -1%
> O=[N+]([O-])c1ccc(N2CCN(S(=O)(=O)c3ccc4ccccc4c3)CC2)cc1NCC1CCCO1 (configuration not stated)
    i | -6%
> Cc1cc(C)c2c(=O)cc(C(=O)Nc3c(C)n(C)n(-c4ccccc4)c3=O)oc2c1
    2% | 3%
> Cc1cc(SCNC(=O)c2ccccc2)nc(C(C)C)n1
    -3% | -2%
> CCCN(C(=O)c1ccc(N2CCCC2=O)cc1)c1c(N)n(Cc2ccccc2)c(=O)[nH]c1=O
    i | -7%
> c1ccc(-c2nc3nc4ccccc4nc3n2Cc2ccco2)cc1
    -11% | -2%
> N#Cc1cc2c(nc1SC1CCCCC1O)CCCC2 (configuration not stated)
    -17%[1.46 µM] | -16%
> COc1cc(CN2CCc3nc(N4CCN(c5ccccn5)CC4)ncc3C2)cc(OC)c1OC
    -7% | ?
> CCN(CC)S(=O)(=O)c1ccc(NC(=O)COC(=O)c2ccc(Br)o2)cc1
    -15% | -7%
> COc1cccc(C(=O)NCCS(=O)(=O)NCc2ccc(Cl)cc2)c1
    -6% | -18%
> CCN(CC)S(=O)(=O)c1ccc(C(=O)NCc2n[nH]c(=S)n2Cc2ccccc2)cc1
    -13% | -4%
> CCOc1ccc2nc(NC(=O)CSCC(=O)Nc3cc(C)on3)sc2c1
    -4% | -18%
> CCOC(=O)c1c(N)sc(C(O)(C(F)(F)F)C(F)(F)F)c1-c1ccc(OC)cc1OC
    -4% | -18%
> CC1C(=O)N(Cc2cn(CC3CCCCC3)nn2)CCS(=O)(=O)N1Cc1ccc(-c2ccc(F)nc2)cc1 (configuration not stated)
    -3% | -6%
> CCOc1ccc(-n2c(-c3ccc(Br)cc3)cc3c2CC(C)(C)CC3=O)cc1
    -9% | -6%
> O=C(c1cccc(C(F)(F)F)c1)C1CCCN(C(=O)CCCN2CCCC2=O)C1 (configuration not stated)
    -3% | -20%
> CC1=C(C(=O)Nc2ccc(C)cc2C)C(c2cc(Br)ccc2F)n2ncc(C(=O)Nc3ccc(C)cc3)c2N1 (configuration not stated)
    -43% | ?
> CCOC(=O)c1cc(CC)sc1/N=C/C1=C(O)CCCC1=O
    -2% | -14%
> COCCNCCCOc1ccc(C)cc1Br
    -1% | -18%
> CCOc1ccc(C(=O)Cc2ccccc2)cc1
    i | -7%
> O=C(CC1CCCCC1)N1CCN(c2ccccn2)CC1
    -8% | -11%
> CCCCNC(=O)c1cc(-c2cccnc2)nc2ccc(S(=O)(=O)NCCCC)cc12
    ? | ?
> Cc1cc(/C=N/NC(=O)COc2cccc3cccnc23)c(C)n1-c1ccc(O)cc1
    i | -6%
> CCCS(=O)(=O)c1c(Nc2ccccc2C)sc(C(=O)c2ccccc2)c1N
    -1% | -12%
> COc1ccc(CCNc2ncnc3c2cnn3-c2ccc(C)cc2)cc1
    -11% | 1%

Further structures
Values run as follows: VACV mCherry inh | Vaccinia Venus
> COc1ccc(-c2cc(-c3nnc(COC(=O)C4CC4C)o3)c3ccccc3n2)cc1OC (configuration not stated)
    -1% | -20%
> O=S(=O)(c1ccccc1)c1nc(-c2ccccc2F)oc1NCc1cccnc1
    -10% | -5%
> CCCN(CCC)C(=O)Nc1ccc(F)cc1F
    i | -5%
> O=C(Cn1cnc2ccccc21)OCC(=O)N1CCc2ccccc2C1
    -9% | -5%
> CCOc1ccc(Nc2oc(/C=C/c3ccc(OC)c(OC)c3)nc2C#N)cc1
    -12% | -18%
> CN(C)CCOc1nc(-c2ccccc2)nc2c1oc1ccccc12
    / | 1%
> COc1cccc(NC(=O)CN(C)C(=O)c2ccccc2CCc2ccccc2)c1
    -9% | -26%
> CN(C)CCCNC(=O)c1ccc(CN(c2ccccc2)S(C)(=O)=O)cc1
    2%[1.46 µM] | -8%
> Cc1cnc(NC(=O)CSc2nc3ccccc3s2)s1
    -7% | -10%
> Cc1ccc(S(=O)(=O)N2CCCCC2)cc1C(=O)N(C)CC(=O)Nc1cccc(F)c1
    i | -10%
> COc1cc(/C=C2/SC(=O)N(CC(=O)N3CCCC3)C2=O)ccc1Oc1ccc([N+](=O)[O-])cn1
    -9% | -12%
> Cn1c(SCc2ccccc2Cl)nc(=O)c2c1NC(=O)CC2c1cc(F)ccc1F (configuration not stated)
    3% | -8%
> CCOC(=O)C1=CN(Cc2ccco2)S(=O)(=O)N(C)C1c1cccc(OC)c1 (configuration not stated)
    ? | -23%
> Cc1cccc(C)c1OCCNC(=O)CCC(=O)c1ccccc1
    -12% | 3%
> CC(=O)N1CCc2cc(S(=O)(=O)NC(C(=O)NC3CCCc4ccccc43)C(C)C)ccc21 (configuration not stated)
    -14% | -18%
> FC(F)C(F)(F)C1=CC(c2cccs2)=NCCN1
    -19% | -10%
> COc1ccc(CCNC(=O)C(=O)NCC2OCCN2S(=O)(=O)c2ccccc2)cc1OC (configuration not stated)
    -14% | -19%
> COc1ccc(Nc2ncc3c(n2)CCN(Cc2cc(Br)cs2)C3)c(OC)c1
    -12% | -4%
> COc1ccc(C(=O)N2CCN(C(=O)c3ccco3)CC2)cc1
    / | -26%
> CCC(C)NC(=O)C1CCN(CCCc2ccccc2)CC1 (configuration not stated)
    -18% | -5%
> COc1[nH]c(/N=C/c2ccco2)c(C#N)c1C#N
    i | 14%
> O=C1C(C=NCc2ccncc2)=C(O)c2ccccc21
    0% | -9%
> Cc1cccc(NC(=S)N2CCC(N(C)CC3CCCO3)CC2)c1C (configuration not stated)
    -15% | -4%
> Cc1ccc(C(=O)CSc2nnc(N)s2)c(C)c1
    -16% | -3%
> CCC1Oc2ccc(C)cc2N(CC(=O)NCC2CCCO2)C1=O (configuration not stated)
    i | 0%
> COc1cc(-c2noc(-c3ccco3)n2)cc(OC)c1OC
    -14% | -17%
> O=C(O)C1Cc2ccccc2CN1C(=O)c1ccccc1Cl (configuration not stated)
    -13% | -4%
> O=C(NCCc1ccc(Cl)cc1)c1ccc(CS(=O)(=O)Cc2ccc(F)cc2)o1
    -14% | -9%
> CC1CCCN(C(=O)CSc2nc3ncccc3[nH]2)C1 (configuration not stated)
    4% | -1%
> CCC1CN(CC(=O)N(C)Cc2nc3ccccc3[nH]2)Cc2cc(OC)ccc2O1 (configuration not stated)
    -10% | 5%
> O=C(NCCc1ccccc1)c1ccc(CSc2nc3ccncc3n2Cc2ccccc2)cc1
    -18% | -13%
> COc1ccc2cc(C(=O)NCc3ccccc3)[nH]c2c1
    -1% | -21%
> CCN(CC)S(=O)(=O)c1cccc(C(=O)N[C@H](C(=O)OCC(=O)Nc2ccccc2)C(C)C)c1
    -17% | -2%
> CCCn1c(SCc2ccccn2)nc2c1c(=O)n(C)c(=O)n2C
    -16% | -12%
> O=C1C2C3c4ccccc4C(c4ccccc43)C2c2nc3ccccc3n21 (configuration not stated)
    / | -23%
> Cc1cc(C)cc(N(C(=O)c2snc(C(N)=O)c2N)C(C(=O)NCC2CCCO2)c2ccc(C)o2)c1 (configuration not stated)
    -27% | -4%
> COc1ccc(S(=O)(=O)NC(=O)C2(C)CCN2C(=O)Cc2ccccc2)cc1OC (configuration not stated)
    1% | -6%
> CCOc1ccc(N2CC(C(=O)Nc3ccc4c(c3)OCO4)CC2=O)cc1 (configuration not stated)
    -8% | -2%
> Cc1ccc(S(=O)(=O)NC(N)=NCCc2ccc(Cl)cc2)cc1C
    -17% | 0%
> Brc1ccc2ncnc(Nc3ccc(N4CCOCC4)cc3)c2c1
    ? | ?
> CN(C)c1ccc(/C=N/NC(=O)C[n+]2ccccc2)cc1
    -13% | -1%
> CN1CC[C@]23c4ccccc4N[C@H]1[C@]21CCN(C)[C@H]3Nc2ccccc21
    -19% | -10%
> CCOC(=O)c1cccc(C2=CC(=O)CC(C)(C)C2)c1
    -14% | -12%
> O=C(Cn1c(=O)oc2cc(S(=O)(=O)N3CCCC3)ccc21)NC1CCCCC1
    -17% | -7%

This is a random part of the collection; overall some 0.82% were active at least once.
